High-throughput results: PubChem BioAssay, Fisher Drug Discovery Resource Center
NPYLR7 ag = activates Aedes aegypti NPYLR7 receptor; HEK293T NPYLR7/Galpha15, GCaMP6s calcium fluorescence; activation, % at 10 µM; hit rate 0.15% among 270,000; AID 1259423; in the data active = activation above about 40%;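 also: 0% = vehicle and 100% = reference agonist at the receptor; some compounds past the cut are filed as inactive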
NPYLR7 ag max-min = recorded beside NPYLR7 ag, whose call it bears; activation, %; measured here: Max-Min RFU normalised activation; some inactives read as strong as hits;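 span of the calcium signal over five minutes; 0% = vehicle and 100% = native peptide agonist; compound fluorescence can raise it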
* hit, by the source's call; & = joins results of further samples. A portion of the library; rates above refer to the full screens.

The first 20 records, ahead of the listing:
SMILES	NPYLR7 ag	NPYLR7 ag max-min
Cc1noc(-c2ccc(C(C)(C)C)cc2)c1C(=O)NC1CCCc2ccccc21 (stereo not drawn)	29	20
CCCCCn1c(Br)nc2c1c(=O)n(C)c(=O)n2C	6	6
COCCN1CC(C(=O)NCc2ccc(C(=O)OC)cc2)CCC1=O (stereo not drawn)	1	-4
COc1ccc2oc(=N)c(C(=O)Nc3ccccc3C)cc2c1	-4	-7
CCCOc1ccccc1C1C(C(=O)OC)=C(C)NC2=C1C(=O)CCC2 (stereo not drawn)	4	-3
CCCc1cnc2c(c1SCc1ccc([N+](=O)[O-])cc1)c(=O)n(C)c(=O)n2C	5	6
Cc1ccn(-c2ccc(Nc3ccc(NS(=O)(=O)c4ccc5c(c4)OCCO5)cc3)nn2)n1	-5	-12
CCCCCn1c(=O)c2c(nc3n2CCN3c2ccccc2)n(C)c1=O	4	-3
CCCCNc1cc(C)nc2c(-c3ccccc3Cl)cnn12	-5	-8
COc1ccc(C(NC(=O)C2CCN(CCOc3ccc4ccccc4c3)CC2)c2ccccn2)cc1 (stereo not drawn)	1	-3
CCC(CNC1CSCCSC1)N1CCOCC1 (stereo not drawn)	5	4
CCc1nc2ccc(C(=O)Nc3cccc(NS(C)(=O)=O)c3)cn2c1N(C=O)CCC(C)C	-8	-13
Cc1cc2occ(CC(=O)N3Cc4ccccc4CC3C(N)=O)c2cc1C (stereo not drawn)	0	3
CC(C)(C)c1csc(CN2CCCC2CCCO)n1 (stereo not drawn)	5	4
O=C(NCc1ccccc1-n1cncn1)C1CCC(=O)N(C2CCCC2)C1 (stereo not drawn)	18	5
Cn1cnc2cc(C(=O)N3C[C@H]4C[C@H](O)[C@@H](O)C[C@H]4C3)cnc21	13	5
O=C(C1CC1c1cccc(F)c1)N1CCOC(c2ccc(Cl)cc2)C1 (stereo not drawn)	1	485
Cc1ccc(-c2csc3nc(SC(C)C(=O)N4CCNC4=O)n(C)c(=O)c23)cc1C (stereo not drawn)	0	0
CSc1ccc(C=CC(=O)c2ccc3c(c2)NC(=O)CO3)cc1	3	0
Cc1nccn1CCCC(=O)N1C[C@@H]2[C@@H]3CC[C@@H](C3)[C@@H]2C1	9	4

All compounds of this part, from the start:
SMILES	NPYLR7 ag	NPYLR7 ag max-min
Cc1noc(-c2ccc(C(C)(C)C)cc2)c1C(=O)NC1CCCc2ccccc21 (stereo not drawn)	29	20
CCCCCn1c(Br)nc2c1c(=O)n(C)c(=O)n2C	6	6
COCCN1CC(C(=O)NCc2ccc(C(=O)OC)cc2)CCC1=O (stereo not drawn)	1	-4
COc1ccc2oc(=N)c(C(=O)Nc3ccccc3C)cc2c1	-4	-7
CCCOc1ccccc1C1C(C(=O)OC)=C(C)NC2=C1C(=O)CCC2 (stereo not drawn)	4	-3
CCCc1cnc2c(c1SCc1ccc([N+](=O)[O-])cc1)c(=O)n(C)c(=O)n2C	5	6
Cc1ccn(-c2ccc(Nc3ccc(NS(=O)(=O)c4ccc5c(c4)OCCO5)cc3)nn2)n1	-5	-12
CCCCCn1c(=O)c2c(nc3n2CCN3c2ccccc2)n(C)c1=O	4	-3
CCCCNc1cc(C)nc2c(-c3ccccc3Cl)cnn12	-5	-8
COc1ccc(C(NC(=O)C2CCN(CCOc3ccc4ccccc4c3)CC2)c2ccccn2)cc1 (stereo not drawn)	1	-3
CCC(CNC1CSCCSC1)N1CCOCC1 (stereo not drawn)	5	4
CCc1nc2ccc(C(=O)Nc3cccc(NS(C)(=O)=O)c3)cn2c1N(C=O)CCC(C)C	-8	-13
Cc1cc2occ(CC(=O)N3Cc4ccccc4CC3C(N)=O)c2cc1C (stereo not drawn)	0	3
CC(C)(C)c1csc(CN2CCCC2CCCO)n1 (stereo not drawn)	5	4
O=C(NCc1ccccc1-n1cncn1)C1CCC(=O)N(C2CCCC2)C1 (stereo not drawn)	18	5
Cn1cnc2cc(C(=O)N3C[C@H]4C[C@H](O)[C@@H](O)C[C@H]4C3)cnc21	13	5
O=C(C1CC1c1cccc(F)c1)N1CCOC(c2ccc(Cl)cc2)C1 (stereo not drawn)	1	485
Cc1ccc(-c2csc3nc(SC(C)C(=O)N4CCNC4=O)n(C)c(=O)c23)cc1C (stereo not drawn)	0	0
CSc1ccc(C=CC(=O)c2ccc3c(c2)NC(=O)CO3)cc1	3	0
Cc1nccn1CCCC(=O)N1C[C@@H]2[C@@H]3CC[C@@H](C3)[C@@H]2C1	9	4
O=C(c1ccc(OC2CCN(Cc3ccc(F)cc3Cl)CC2)cc1)N1CCCC1	7	5
COC(=O)c1sc(NC(=O)C=Cc2cccs2)nc1C	-17	-17
O=C1C(=O)N(CCN2CCOCC2)C(c2ccccc2)C1=C(O)c1ccc(Br)cc1 (stereo not drawn)	3	1
COC(=O)c1cccc(NC(=S)N[C@H]2CO[C@H]3[C@@H]2OC[C@@H]3n2nnnc2Oc2cccc(N(C)C)c2)c1	-9	-15
C[C@@H]1CN(C(=O)CCNC(=O)c2ccc(NC3OC(C4COC(C)(C)O4)[C@@H]4OC(C)(C)O[C@H]34)cc2)C[C@H](C)O1 (stereo partly drawn)	-9	-18
CCN(Cc1noc(C)n1)C(=O)CC1C(=O)NCCN1CC1CCCCC1 (stereo not drawn)	5	1
Cc1ccccc1C1CCCN1C(=O)[C@@H]1CCCN1 (stereo partly drawn)	12	10
CC1=CC[C@@H]2CN(C(=O)c3cc(C(C)(C)C)[nH]c(=O)n3)C[C@@H]2C1	13	5
Cc1cc(=O)n2nc(N3CCC(C(=O)NC4CCC(C)CC4)CC3)sc2n1 (stereo not drawn)	-5	-3
COc1ccc(C=NO)cc1OCc1ccccc1	5	5
CCC(C(=O)NCc1ccc(F)cc1C(F)(F)F)N(CC)CC (stereo not drawn)	3	1
O=C1CSC(c2ccc(F)cc2F)N1CCO (stereo not drawn)	0	-2
CNC(=O)c1cc(-c2ccccc2CO)ccc1Cl	2	2
O=c1cc(CN2CCCc3c(F)cccc32)occ1O	1	-2
N#CC(C#N)C(=N)C(C#N)Cc1ccc(Cl)cc1 (stereo not drawn)	5&4	-4&8
O=C(CCc1ccncc1)NCCN1Cc2ccccc2OC(c2ccccc2F)C1 (stereo not drawn)	20	7
CC(C)COc1nc(-c2cccc(C(F)(F)F)c2)n(-c2ccc(NC(=O)COc3ccccc3)cc2)n1	14	11
CN1CCN2CCN(C(=O)c3cccc(N)c3)CC2C1=O (stereo not drawn)	2	2
N#Cc1ccc(C=C2N=C(c3ccccc3)OC2=O)cc1	4	11
CN1CCN(C(c2ccccc2)C2Sc3ncnn3C2=O)CC1 (stereo not drawn)	9	8
FC(F)(F)c1cc(-c2ccccc2)nc(-n2cc(Cl)cn2)n1	4	-1
C=CCNC(=O)NC1CC(=O)N(CCc2cccc(Cl)c2)C1 (stereo not drawn)	15	7
Cc1ccc2c(c1)C(O)(CC(=O)/C=C\c1ccccc1)C(=O)N2 (stereo not drawn)	10	7
Clc1ccc(C2(c3nnc(SCc4ccc5ccccc5n4)o3)CCC2)cc1	19	6
CCN(Cc1cccc(F)c1)c1ccc(S(=O)(=O)N2CCOCC2)cc1[N+](=O)[O-]	5	2
CCCC(=O)C1=C(c2ccc(OCC)cc2)N(C(=O)CCC)n2c(CC)nnc2S1	4	2
CCSc1nnc2c(n1)OC(C)(C)Nc1ccccc1-2	25	24
O=C(Nc1cccc(Nc2ncc(Br)c(NCCc3cnc[nH]3)n2)c1)N1CCCC1	-4	-12
Cn1cc(CCC(=O)Nc2ccc3c(c2)S(=O)(=O)C=C3)cn1	-12	-16
CC1CN(c2nc(Nc3ccc(F)cc3)c3nccnc3n2)CC(C)O1 (stereo not drawn)	15	13
(continued)
SMILES	NPYLR7 ag	NPYLR7 ag max-min
O=C(CN1CCN(S(=O)(=O)c2ccc3c(c2)CCC3)CC1)N1CCCC2CCCCC21 (stereo not drawn)	-3	-3
CO[C@]1(CO)C(=O)C[C@@H]2C(COC(=O)/C=C(\C)COC(C)=O)=CO[C@@H](OC(=O)/C=C(\C)COC(C)=O)[C@@H]21	2	-4
COc1ccc(OCCCN2CCc3ccccc3C2)cc1	-6	9
CCn1cc(C(=O)N2CCCC(C)C2)c2nn(-c3ccccc3)c(=O)c-2c1 (stereo not drawn)	11	5
Cc1c(C(=O)NCC(C)C)cnn1C	20	17
O=C(c1cnn2c(C(F)(F)F)cc(-c3cccs3)nc12)N1CCN(C(c2ccccc2)c2ccccc2)CC1	6	12
Cc1cccc2sc(N(CCCn3ccnc3)C(=O)c3ccc4c(c3)OCCO4)nc12	-12	-15
CN1CCC(Cc2noc(CCc3nc4cccnc4n3C)n2)CC1	9	4
CCOc1c(Br)cc(F)cc1NC(=O)c1cccc(C)n1	3	2
N#Cc1cc(Cl)ccc1N1CCC(C(=O)Nc2ncccn2)CC1	6&11	5&4
CNc1ncccc1C(=O)NCC1CCCN(Cc2cnc[nH]2)C1 (stereo not drawn)	-1	-1
CCOc1ccc(C(=O)Oc2coc(CSc3nc(C)cc(C)n3)cc2=O)cc1	-14	-6
Cc1nnc(-c2ccccc2-c2cccc(CN3CCOCC3)c2)o1	8	-2
CCOC(=O)C1(Cc2cccc(Cl)c2)CCCN(C(=O)c2ccc(COC)s2)C1 (stereo not drawn)	2&7	-5&11
C=CCN(Cc1cccc(C)n1)Cc1ccccc1OC	-10	-15
CS(=O)(=O)/C(C#N)=C/c1cc(Br)ccc1OCc1ccccc1	9	5
Cc1nc(CC(=O)N2CCC(n3c(-c4ccccc4)nc4ccc(F)cc43)CC2)c(C)s1	0	1
C=CCNC(=O)N1CCOCC1CC(O)c1ccccc1 (stereo not drawn)	11	8
COCC(=O)N1CCC(Nc2ccnc3ccc(Cl)cc23)CC1	-4	-5
COCCCN(C(=O)C(C)C)c1cccc(NC(=O)C(C)C)c1	-1	7
FC(F)(F)c1ccccc1-n1c(C2C3CCCCC32)n[nH]c1=S (stereo not drawn)	-15	-23
CC(=O)Nc1ccc(CNc2nc3cc(-c4ccccc4C)sc3c(=O)n2C)cc1	1	1
O=C(CCS(=O)(=O)c1ccccc1)N(Cc1cccnc1)c1nc2ccc(Cl)cc2s1	-5	2
Cc1cccnc1C(C)NC(=O)c1cccc2c1NCCC2 (stereo not drawn)	5	3
COc1ccc2c(c1)C(CO)CC(C)(C)CO2 (stereo not drawn)	1	14
CC(CNC(=O)c1ccccc1)C(C)(Br)CBr (stereo not drawn)	7	4
CCCCN(CC(=O)Nc1cc(C(C)(C)C)nn1-c1ccc(Cl)cc1)S(=O)(=O)c1ccc(OC)cc1	8	16
O=C(NCCCO)Nc1c(F)cc(F)cc1-c1ccccc1	19	16
COc1ccccc1-c1nc2ccc(Cl)cn2c1NC1CCCCC1	-4	-3
CCS(=O)(=O)n1nc(-c2ccco2)nc1N	3	-2
CCCCN(C)c1c(C)nc2ccc(C(=O)NCCNC(C)=O)cn12	-5	-10
O=C(CCCc1ccccc1)N1CCN(c2ncnc3c2nnn3-c2ccccc2)CC1	-15	-21
CCn1c(Cn2cnc3ccccc3c2=O)nc2cc(F)ccc21	18	21
Oc1ccc(CCNc2nccc(C3CCCC3)n2)cc1	-1	-6
CC(CCC(C)C)=NNC(=O)Cc1cn2ccsc2n1	-6	-7
Cc1ccc2[nH]ncc(=O)c2c1	-5	-7
COc1ccc(-c2nc3ccccn3c2NC(=O)C(C)(C)C)cc1OC	6	9
O=C(NCCC1CN(Cc2ccco2)CCO1)C(=O)N1CCCC1 (stereo not drawn)	12	7
CCOC(=NCCCN1CCOCC1)NC(=O)c1ccc(Cl)c(Cl)c1	-3	-5
N#Cc1cccc(-c2nc3ccc(Br)cc3c(=O)n2Cc2ccccc2)c1	27	14
CCC(=O)N(c1nnc(SCC(=O)c2ccc(Cl)s2)s1)C1CC1	7	15
O=C(OCC1(O)C(Cl)C=CC(OC(=O)c2ccccc2)C1O)c1ccccc1 (stereo not drawn)	-14	-17
CCC(C)N(Cc1ccsc1)C(=O)c1cn(C)c2ccc(C)cc2c1=O (stereo not drawn)	26	18
O=C1CCC(=O)N1Oc1c(F)c(F)c(C(F)(F)F)c(F)c1F	-2	-3
N#Cc1ccccc1CN1CCN(c2nc(C(=O)Nc3ccccc3)co2)C1=O	0	0
Nc1c(-n2nnc(-c3cccs3)n2)c(=O)[nH]c2sc3c(c12)CCC3	17	12
CC(=O)Oc1ccccc1CN1C(=O)C(CCc2ccccc2)ON=C1c1cnccn1 (stereo not drawn)	-3	-4
CN1CCN(C(=O)c2cn(CC3CCCO3)cc3c(=O)n(-c4ccccc4)nc2-3)CC1 (stereo not drawn)	6	3
CC(=O)Nc1ccc(NC(=S)NC(=O)c2ccc(C(C)(C)C)cc2)cc1	0	-7
CC(c1cccc(-c2ccc3ncccc3c2)c1)N(C)C (stereo not drawn)	-4	-5
Following part
SMILES	NPYLR7 ag	NPYLR7 ag max-min
CCOC(=O)c1c(N)sc(C(=O)Nc2ccc3c(c2)OCO3)c1C	2	7
CC(=O)Nc1cccc(C(=O)N2CCN(Cc3cccc(-c4noc(C5CCCC5)n4)c3)CC2)c1	9	23
Cc1c(CN2CCOc3ccc(C4=Cc5ccccc5CC4)cc3C2)c(=O)n(-c2ccccc2)n1C	15	3
Cc1cc(C)c2sc(N(CCN3CCOCC3)C(=O)c3cccs3)nc2c1	8	1
Cn1c(=O)[nH]c(=O)c2c1nc(N1CCCCC1)n2Cc1ccccc1Cl	5	0
CC(C)CCN(CCC#N)C(=O)c1nccc2ccccc12	4	6
CCCc1noc2nc(C3CC3)cc(C(=O)NC3CCCN(C)C3)c12 (stereo not drawn)	8	4
Nc1cc(-c2cccc(Cl)c2)[nH]n1	-1	-1
O=C(Nc1ccc(Cl)nc1)N1CCC(COCc2ccccc2)C1 (stereo not drawn)	-1	-2
